# Screening data as filed in PubChem.
# Polio RdRp inh: inhibitors of poliovirus RNA polymerase binding and polymerization; P03300; poliovirus polymerase elongation, fluorescence polarization; active compounds read low; % elongation, % (compound at 16.7 µg/mL); actives 0.66% (n = 150,000); in the data active = % elongation below about 90%; also: some results filed as inactive read as strong as hits
# Target sequence (P03300 1749-2209 limits assumed): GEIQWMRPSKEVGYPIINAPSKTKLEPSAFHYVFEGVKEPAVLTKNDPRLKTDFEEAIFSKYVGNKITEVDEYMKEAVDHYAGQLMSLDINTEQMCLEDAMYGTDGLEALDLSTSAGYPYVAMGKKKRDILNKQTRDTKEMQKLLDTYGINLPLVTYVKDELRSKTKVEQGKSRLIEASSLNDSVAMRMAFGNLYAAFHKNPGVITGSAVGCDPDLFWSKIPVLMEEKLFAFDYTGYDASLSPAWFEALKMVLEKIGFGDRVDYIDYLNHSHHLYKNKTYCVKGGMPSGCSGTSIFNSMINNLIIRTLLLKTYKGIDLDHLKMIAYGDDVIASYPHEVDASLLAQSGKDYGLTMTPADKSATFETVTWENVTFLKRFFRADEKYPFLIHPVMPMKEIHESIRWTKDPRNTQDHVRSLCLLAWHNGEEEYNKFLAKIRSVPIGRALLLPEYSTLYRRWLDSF
# Polio RdRp inh intensity: second read-out of Polio RdRp inh, no call of its own (marks repeat the call); % elongation; measured here: total intensity read-out; formula for this scale not given here;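 total fluorescence in place of polarization; lower means less elongation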
# Numbers without * were called inactive. An excerpt; rates above refer to the full screens.
SMILES,Polio RdRp inh,Polio RdRp inh intensity
CN(C(=O)Cn1cc(S(=O)(=O)Cc2ccccc2Cl)c2ccccc21)c1ccccc1,109,103
Cc1ccc(NC(=O)Cn2cc(S(=O)(=O)c3ccc(C)cc3)c(=O)c3cc4c(cc32)OCO4)cc1,107,109
CN(C)CCNC(=O)c1ccc(Cn2c(SCc3ccc(F)cc3)nc3cccnc32)cc1,114,105
CCOc1ccc(NC(=O)c2c(NC(=O)Cc3ccccc3)sc3c2CCCC3)cc1,99,102
COCCNC(=O)c1ccc(Cn2c(SCC(=O)NC(C)C)nc3ccccc3c2=O)cc1,98,96
Cc1cccc(N2CCN(C(=O)C3CCN(c4ncnc5c4nc4n5CCCCC4)CC3)CC2)c1C,103,107
Cc1ccc(-c2c(C(=O)N3CCN(c4ccc(F)cc4)CC3)oc(=O)c3ccccc23)cc1,112,106
Cc1ccccc1NS(=O)(=O)c1ccc2[nH]cc(C(=O)NCCc3ccccc3)c(=O)c2c1,100,97
CCOc1ccc(-c2nn(CC(=O)NC3CCCC3)c3c2cnc2ccc(F)cc23)cc1,109,101
O=C(COc1ccccc1[N+](=O)[O-])N1CCC(c2nc3ccccc3o2)CC1,107,105
O=C(Cn1ccc2ccccc2c1=O)NCCC(=O)Nc1ccc(F)cc1F,106,107
CCC(=O)Nc1nnc(S(=O)(=O)N2CCCCCC2)s1,106,110
O=S(=O)(Nc1cccc(-c2ccc(N3CCCCC3)nn2)c1)c1cccs1,107,111
COc1cccc(Cc2nc3ccccc3nc2SCC(=O)N2CCc3ccccc32)c1,100,98
Cc1ccc(N(CC(=O)N2CCN(c3ccc(Cl)cc3)CC2)S(=O)(=O)c2c(C)noc2C)cc1,99,98
Cc1cc(C)cc(NC(=O)C(=O)NCC(c2cccnc2)N2CCN(c3ccccc3)CC2)c1 (stereo not given),112,111
COc1ccccc1CNC(=O)c1ccc2c(c1)CCN2S(=O)(=O)c1ccc(Cl)cc1,108,106
CC1=C(C(=O)N2CCCCC2)C(c2cccc(Cl)c2)n2c(nc3ccccc32)N1 (stereo not given),105,107
COc1cc(C)c(Cl)cc1S(=O)(=O)NCCc1c(C)[nH]c2ccccc12,107,112
CCc1ccccc1NC(=O)c1cc2nc(-c3ccc(OC)c(OC)c3)cc(C(F)(F)F)n2n1,105,104
Cc1ccc(C)c2sc(NC(=O)c3ccc(S(=O)(=O)N4CCCC4)cc3)nc12,109,117
Cc1ccc(Cl)cc1NC(=O)Cn1c(=O)n(CCC(=O)NCc2ccc3c(c2)OCO3)c(=O)c2sccc21,104,108
COc1ccc(NC(=O)c2cnc(SCC(=O)Nc3nc4ccc(C)cc4s3)n(C)c2=O)cc1,112,105
COC(=O)c1c(NC(=O)COc2cc(C)ccc2C(C)C)sc2c1CCC(C)C2 (stereo not given),104,107
Cn1c(=O)c2c(SCC(=O)NCc3ccco3)nc(-c3ccccc3)nc2n(C)c1=O,112,105
# Next structures:
SMILES,Polio RdRp inh,Polio RdRp inh intensity
CC(C)CCNC(=O)c1cn(C)c2ccc(S(=O)(=O)N3CCCC3)cc2c1=O,99,100
CCS(=O)(=O)c1ncc(N(Cc2ccc(F)cc2)Cc2ccco2)c(C(=O)Nc2cc(C)ccc2C)n1,111,111
Cc1nc(-c2ccc(Cl)cc2)sc1CCNC(=O)C(=O)Nc1ccc(F)cc1F,112,113
CCCCc1nn2c(=O)cc(COC(=O)c3ccccc3NC(=O)c3cccc(C)c3)nc2s1,102,105
Cc1ccc(CNC(=O)c2ccc(N3CCCC3)c(NC(=O)Nc3ccc(F)c(Cl)c3)c2)cc1,107,106
Cc1cccc(-c2nnc3n(CCc4ccccc4)c(=O)c4ccccc4n23)c1,107,108
CCc1ccccc1N(CC)C(=O)C(=O)Nc1ccc2nc3n(c(=O)c2c1)CCCCC3,108,109
O=C(c1ccc(CSc2nc3ccncc3n2Cc2ccccc2)cc1)N1CCCCCC1,108,111
CC(=O)NC1CC(=O)N(c2ccc3c(c2)OCCO3)C1 (stereo not given),103,104
Cc1ccc(-c2noc(CNS(=O)(=O)c3ccc(F)cc3)n2)cc1,108,110
CCc1nn(C(CC)C(=O)NCc2ccc(F)cc2)c(=O)c2cc3occc3n12 (stereo not given),108,109
COc1ccc(CCNC(=O)CCc2cn(Cc3ccccc3Cl)c3ccccc23)c(OC)c1,108,107
COc1ccc(Nc2cc(C(=O)NC3CCCC3)c3ccccc3n2)cc1,114,112
Cc1cc(C)c2c(=O)c3c(oc2c1)C(=O)N(Cc1ccco1)C3c1ccc(F)cc1 (stereo not given),107,112
CCOC(=O)C1CCCN(C(=O)c2[nH]c3ccccc3c2Sc2ccc(Cl)cc2)C1 (stereo not given),103,107
COc1ccc2ncc3c(-c4ccc(C)c(C)c4)nn(CC(=O)Nc4ccccc4)c3c2c1,109,114
CCCNC(=O)c1cc2n(n1)CCCN(Cc1ccc(C)cc1)C2=O,108,95
COc1cc(C2Nc3c(C)cc(C)cc3-c3cc(C)nn32)cc(OC)c1O (stereo not given),101,100
Fc1ccc(Nc2nc(-c3cccc(Cl)c3)c3c(n2)-c2ccccc2OC3)c(F)c1,104,101
O=C(CSc1nnc2[nH]c(=O)cc(-c3ccccc3)n12)Nc1ccccc1C(F)(F)F,108,106
COc1ccc2c(CNCCc3ccccc3C)c(C(=O)O)n(Cc3ccccc3C)c2c1,99,107
CCCCN(C)C(=O)Cn1c(SCC(=O)Nc2ccc(C)c(C)c2)nc2ccccc21,103,108
CCSc1nc2c([nH]c3ccccc32)c(=O)n1-c1ccc(OC)cc1,110,119
COc1ccc(-c2c(C#N)c(SCC(=O)Nc3ccccc3C)nc(C)c2C(=O)Nc2ccccc2)cc1OC,105,104
COc1ccc(NC(=O)C2CCCN(S(=O)(=O)c3c(C)[nH]c(=O)[nH]c3=O)C2)cc1 (stereo not given),105,106
# (listing goes on)
SMILES,Polio RdRp inh,Polio RdRp inh intensity
CCn1cc(C(=O)N2CCN(c3ccccc3)CC2)c(=O)c2cc(S(=O)(=O)N3CCOCC3)ccc21,99,98
O=C(NC1CCCCC1)c1ccc(CSc2nc3ccncc3n2Cc2ccccc2F)cc1,112,113
COc1ccc(CCNC(=O)c2ccc(CNS(=O)(=O)c3ccccc3)cc2)cc1OC,110,106
Cc1cc(NC(=O)CSc2ncc(C(=O)Nc3ccc(Cl)cc3)c(=O)n2C)no1,103,109
CC(=O)N1CCCc2cc(S(=O)(=O)N3CCCC(C(=O)NC(C)C)C3)ccc21 (stereo not given),107,94
Clc1cccc(-n2ncc3c(NCCCN4CCOCC4)ncnc32)c1,104,106
COc1ccc(-n2cc(-c3ccc4c(c3)OCO4)n(CC(=O)Nc3cc(Cl)ccc3C)c2=O)cc1,112,112
Cc1ccc2c(=O)cc(C(=O)NCc3ccccc3)oc2c1,104,103
Cc1ccc(C)c(CN2C(=O)c3ccccc3S(=O)(=O)c3ccc(C(=O)N4CCc5ccccc54)cc32)c1,103,106
CC(C)Sc1nc2sc3c(c2c(=O)n1-c1ccccc1)CCCC3,104,108
Cc1ccc(-c2noc(-c3ccc(NC4CCCC4)c([N+](=O)[O-])c3)n2)cc1,105,103
Cc1nc2ccccn2c(=O)c1NC(=O)c1ccc(C(F)(F)F)cc1,114,117
O=C(c1cccs1)N(Cc1cccnc1)c1nc2c(Cl)cccc2s1,114,114
CCc1ccc(NC(=O)CC2C(=O)N(c3cccc(C)c3)C(=O)N2Cc2cccs2)cc1 (stereo not given),103,107
Cc1ccc(C)c(CN2C(=O)c3ccccc3S(=O)(=O)c3ccc(C(=O)N4CCN(c5ccccn5)CC4)cc32)c1,107,107
Cc1cc(C)c2nc(N(Cc3cccnc3)C(=O)Cc3ccccc3)sc2c1,111,116
Cc1cc(-c2ccc(S(=O)(=O)Nc3cc(Cl)ccc3C)s2)on1,100,96
CCc1ccc(Cn2c(CNS(=O)(=O)c3ccc4c(c3)CCCC4)nc3cccnc32)cc1,108,113
CC(C)(C)OC(=O)N1CCC(c2c(C(=O)NCCN3CCOCC3)cnn2-c2cccc(F)c2)CC1,101,97
Cc1ccc(-n2c3nc(=O)[nH]c(=O)c-3cc3c(C)nn(-c4ccccc4)c32)c(C)c1,107,109
CCOc1ccccc1N(C)C(=O)Cn1cnc2onc(-c3ccc(F)cc3)c2c1=O,110,110
CCc1cccc(NC(=O)Cn2c(=O)n(CCC(=O)NCC3CCCO3)c(=O)c3cc(OC)c(OC)cc32)c1 (stereo not given),102,102
O=C(c1cc(=O)c2cc(Cl)ccc2o1)N(Cc1ccccc1)C1CCS(=O)(=O)C1 (stereo not given),112,116
Cc1ccc(-n2ncc3c(NCCCn4ccnc4)ncnc32)cc1Cl,108,102
COc1cccc(C2CC(=O)Nc3c2c(=O)n(C)c2ncnn32)c1OC (stereo not given),101,101

# Molecules from the list above with a nitro group on carbon, in the order listed:
SMILES,Polio RdRp inh,Polio RdRp inh intensity
O=C(COc1ccccc1[N+](=O)[O-])N1CCC(c2nc3ccccc3o2)CC1,107,105
Cc1ccc(-c2noc(-c3ccc(NC4CCCC4)c([N+](=O)[O-])c3)n2)cc1,105,103

# (continued)
SMILES,Polio RdRp inh,Polio RdRp inh intensity
CCC1CN(C(=O)N2CCC(C(=O)NCc3ccccc3C)CC2)c2ccccc2O1 (stereo not given),109,109
O=C(Nc1c(O)c2ccccc2oc1=O)c1ccccc1Cl,104,109
O=C(Oc1ccc(F)cc1)c1nc(SCc2ccccc2F)ncc1Cl,109,110
CC1CCCN(S(=O)(=O)c2ccc(N3CCCCS3(=O)=O)cc2)C1 (stereo not given),99,106
Cc1cccc(NC(=O)C(Cc2ccccc2)NS(=O)(=O)c2ccc3c(c2)c(=O)n(C)c(=O)n3C)c1 (stereo not given),105,105
Cc1cc(-n2c(C)nc3ccccc3c2=O)ccc1NC(=O)c1ccccc1[N+](=O)[O-],101,105
CCOc1ccc(-c2c(C)nn3c(C)c(C(=O)NC(C)c4ccccc4)cnc23)cc1OCC (stereo not given),111,111
C#CC(C)(CC)NC(=O)Cn1nnc(-c2ccc(OCc3ccccc3C)cc2)n1 (stereo not given),108,104
Cc1ccc(CN2CCC(CNC(=O)Nc3ccccc3F)CC2)cc1,106,97
COc1cc(NC(=O)Nc2cccc(-c3noc(C)n3)c2)cc(OC)c1OC,107,102
COc1ccccc1NC(=O)c1ccc(COc2ccc(C)c(C)c2)o1,104,108
CCC(=O)N1CCc2cc(S(=O)(=O)NC(C(=O)NCCc3ccc(C)cc3)C(C)C)ccc21 (stereo not given),102,105
CC(C)c1nn2c(=O)cc(COC(=O)c3ccccc3NC(=O)COc3ccccc3)nc2s1,105,112
COc1ccc(C)cc1NC(=O)C1CCN(S(=O)(=O)c2cccc3nonc23)CC1,108,115
Cc1ccc(NC(=O)CSc2nc3c([nH]c4ccccc43)c(=O)n2-c2ccccc2)cc1Cl,106,108
Cc1ccc(C(=O)OCc2cc(=O)n3nc(CC(C)C)sc3n2)cc1,101,99
COc1ccc(CCC(=O)NCCc2csc(-c3ccc(C(F)(F)F)cc3)n2)cc1,112,110
CCc1ccc(Cn2c(CNS(=O)(=O)c3ccc([N+](=O)[O-])cc3)nc3cccnc32)cc1,118,105
CCSc1nc2ccccc2c(OCc2cc(C(=O)OC)ccc2OC)c1C(=O)OC,100,106
O=C(CSC1=Nc2ccccc2C2=NC(Cc3ccccc3)C(=O)N12)Nc1ccccc1F (stereo not given),107,97
CCOC(=O)c1cc(S(=O)(=O)N2CCN(c3cccc(C)c3)C(C)C2)[nH]n1 (stereo not given),104,103
CCN(CC)S(=O)(=O)c1ccc(C(=O)N=c2sc3cccc(OC)c3n2C)cc1,100,101
CC(C)(C)OC(=O)N1CCC(c2c(C(=O)NCCN3CCOCC3)cnn2-c2ccc(F)cc2)CC1,100,104
CCOc1ccc(CCNC(=O)c2cn(CC)c3ccc(S(=O)(=O)N4CCc5ccccc5C4)cc3c2=O)cc1OCC,102,103
COC(=O)CC1Oc2ccc(F)cc2-n2cc(-c3ccc(Cl)cc3)nc21 (stereo not given),101,104
COc1ccc2c(c1)c1c(c(=O)n(-c3ccccc3C)c(=O)n1Cc1c(F)cccc1Cl)n2C,110,110
CCN(CC)S(=O)(=O)c1ccc2c(c1)nc(CN(C)C(=O)Nc1ccc(C)c(F)c1)n2C,109,112
CC(C)(C)C1CCc2oc3ccc(NS(=O)(=O)c4ccc(C(=O)O)cc4)cc3c2C1 (stereo not given),104,102
Cc1cccc(-n2ncc(C(=O)NCc3ccc4c(c3)OCO4)c2C2CCN(C(=O)OC(C)(C)C)CC2)c1,108,110
Cc1ccc(C)c(NC(=O)CC2NCCNC2=O)c1 (stereo not given),103,103

# Copied from the list:
# `Cc1ccc(C)c2sc(NC(=O)c3ccc(S(=O)(=O)N4CCCC4)cc3)nc12` in Polio RdRp inh intensity → 117
# `Cc1ccc(-n2ncc3c(NCCCn4ccnc4)ncnc32)cc1Cl` in Polio RdRp inh intensity → 102
# `COc1cc(C)c(Cl)cc1S(=O)(=O)NCCc1c(C)[nH]c2ccccc12` in Polio RdRp inh intensity → 112
# `Cc1ccc(C)c(CN2C(=O)c3ccccc3S(=O)(=O)c3ccc(C(=O)N4CCN(c5ccccn5)CC4)cc32)c1` in Polio RdRp inh → 107
# `O=C(Nc1c(O)c2ccccc2oc1=O)c1ccccc1Cl` in Polio RdRp inh intensity → 109
# `CCS(=O)(=O)c1ncc(N(Cc2ccc(F)cc2)Cc2ccco2)c(C(=O)Nc2cc(C)ccc2C)n1` in Polio RdRp inh → 111
# `COc1ccc2c(CNCCc3ccccc3C)c(C(=O)O)n(Cc3ccccc3C)c2c1` in Polio RdRp inh intensity → 107

# Molecules from the list above with a COOH group, in the order listed:
SMILES,Polio RdRp inh,Polio RdRp inh intensity
COc1ccc2c(CNCCc3ccccc3C)c(C(=O)O)n(Cc3ccccc3C)c2c1,99,107
CC(C)(C)C1CCc2oc3ccc(NS(=O)(=O)c4ccc(C(=O)O)cc4)cc3c2C1 (stereo not given),104,102
